Screens (PubChem BioAssay)
Sa growth 42C: inhibitors of Staphylococcus aureus growth at 42 °C; 170,000 tested, 0.53% active; AID 720641; S. aureus RN4220 growth, OD600, 20 h; active compounds read low; relative growth, % (no concentration beside the values);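 active means growth at 42 °C up to 50% and 20 or more points under that at 30 °C, or under 10% at both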;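 further: 300 nL library stock went into each well; scaled to the means of positive and negative controls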
HCMV NEC inh: cytomegalovirus nuclear egress complex inhibition | HTRF UL50-UL53 interaction, normalized percent inhibition | inhibition, % (test concentration not listed) | 190,000 tested, 0.15% active | AID 1918969;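 active means both replicates at 50% or more, plus weaker picks with an unusually low signal ratio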;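 further: stock transfer was 100 nL into about 20 µL; 0% = negative control wells and 100% = wells with untagged competitor protein; inactives centre near -12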
GIV-Gai inh: inhibitors of GIV GBA-motif binding to rat Galpha-i3; P08753; percent of control (FP), % (test concentration not listed); 210,000 tested, 0.42% active; AID 1224905; Galpha-i3/FITC-GIV peptide fluorescence polarization, 90 min; active compounds read low; scaled: aluminum fluoride 0%, vehicle 100%;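 active means replicate mean at 85% of control or lower, very high polarization wells dropped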;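 further: lower values mean more displacement of the GIV peptide from Galpha-i3; wells of about 15 µL received 100 nL stock; the first replicate is given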
Target sequence (P08753 whole entry, looked up): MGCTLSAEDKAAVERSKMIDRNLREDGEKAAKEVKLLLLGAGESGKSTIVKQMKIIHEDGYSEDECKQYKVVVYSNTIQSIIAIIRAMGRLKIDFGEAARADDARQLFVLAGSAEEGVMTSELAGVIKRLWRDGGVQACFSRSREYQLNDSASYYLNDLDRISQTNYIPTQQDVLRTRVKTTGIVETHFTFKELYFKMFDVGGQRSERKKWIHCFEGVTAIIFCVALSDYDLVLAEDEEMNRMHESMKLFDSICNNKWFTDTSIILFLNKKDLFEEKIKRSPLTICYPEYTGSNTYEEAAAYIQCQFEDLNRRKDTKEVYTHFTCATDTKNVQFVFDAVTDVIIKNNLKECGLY
Sa growth 42C second temp: second read-out of Sa growth 42C, no call of its own (marks repeat the call); relative growth, %; measured here: growth at 30 °C;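 optical density after 20 h as mean of two plates; 100% = untreated growth and lower means inhibition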
* = called active by the depositor; x = not tested or not shown; & = joins results of further samples.

(1) Cc1ccc(NS(=O)(=O)c2cc(Cl)ccc2Cl)nc1
(2) Cc1ccccc1N1C(=O)C=CC1=O
(3) COc1cc(Cl)c(C)cc1NC(=S)N(Cc1ccccc1C)CC1CCC(C(=O)O)CC1 (stereo not drawn)
(4) CS(=O)(=O)N1CCCC1c1cccc(F)c1 (stereo not drawn)
(5) C=CCn1c(SCc2cccnc2)nnc1-c1ccncc1
(6) CC1=C(C(=O)Nc2cccc(C(F)(F)F)c2)C(c2ccccc2)C2=C(CCCC2=O)N1 (stereo not drawn)

assay / entry	1	2	3	4	5	6
Sa growth 42C	112	87	57	x	86	103
Sa growth 42C second temp	76	83	39	x	97	52
HCMV NEC inh	x	18	x	-19	-19	x
GIV-Gai inh	102	x	104	99	98	100

(7) Cc1cccc(-c2nccc(Nc3cccc(C(=O)NC4CC4)c3)n2)c1
(8) COc1ccc(C)c2sc(=NC(=O)C3CC3)n(C)c12
(9) N=c1oc2ccccc2cc1C(=O)Nc1ccccc1
(10) CCc1ccc(CSc2nc(-c3ccc(OC)cc3)nc3c2Cc2c(CO)cnc(C)c2O3)cc1
(11) COc1cc(Cn2c(=O)sc3ccccc32)ccc1OCCC(C)C
(12) COC(=O)c1ccccc1NC(=O)c1nn(-c2ccc(C)cc2)c(=O)cc1OC

assay / entry	7	8	9	10	11	12
Sa growth 42C	x	101	98	89	103	x
Sa growth 42C second temp	x	85	89	88	91	x
HCMV NEC inh	-2	-25	-28	x	-23	-3
GIV-Gai inh	108	104	99	97	101	102

(13) CC(C)c1cc(C(C)C)c(S(=O)(=O)NCCCN2CCOCC2)c(C(C)C)c1
(14) Cc1nn(CC(=O)Nn2c(-c3ccc(F)cc3)nc3ccccc3c2=O)c(C)c1[N+](=O)[O-]
(15) Cn1cc(C(=O)N/N=C/c2ccc(Cl)cc2Cl)ccc1=O
(16) Cc1nc(SCC(=O)c2ccc3c(c2)CCN3S(C)(=O)=O)n(C2CCCCC2)c1C
(17) CCOc1ccc(C2C3=C(CC(c4ccc(O)cc4)CC3=O)Nc3onc(C)c32)cc1 (stereo not drawn)
(18) Cc1ccc2c(CC(=O)Nc3c(C(=O)c4ccc(C)c(F)c4)oc4ccccc34)coc2c1

assay / entry	13	14	15	16	17	18
Sa growth 42C	94	x	103	93	x	88
Sa growth 42C second temp	83	x	105	68	x	95
HCMV NEC inh	x	-1	-30	-17	-25	5
GIV-Gai inh	98	104	105	x	110	112

(19) O=C(OCC(=O)N1CCN(c2ccccc2)CC1)c1ccc2[nH]c3c(c2c1)CCCC3
(20) Cc1[nH]c(C(=O)N2CCOCC2)c(C)c1S(=O)(=O)N1CCOCC1
(21) Cc1ccc(C2CCCN2C(=O)c2c(C)noc2C)cc1 (stereo not drawn)
(22) Cc1c(C(=O)OC(C)C(=O)Nc2ccc(S(N)(=O)=O)cc2)sc2nc3n(c(=O)c12)CCCCC3 (stereo not drawn)
(23) O=C(OCC1CCCO1)c1cc(F)c(F)c(F)c1F (stereo not drawn)
(24) Cc1cc(=O)oc2ccc(O)cc12

assay / entry	19	20	21	22	23	24
Sa growth 42C	115	x	x	86	115	93
Sa growth 42C second temp	107	x	x	90	98	85
HCMV NEC inh	2	-23	-25	-16	4	-30
GIV-Gai inh	x	105	107	x	x	102

(25) Cc1ccc(NC(=S)Nc2ccc(C)cc2)cc1
(26) Cc1ccc(NC(=O)CN2C(=O)C(c3ccccc3)=NC2(C)C)cc1C
(27) O=C(CCS(=O)(=O)c1cc(Br)cc2c1N(C(=O)C1CC1)CC2)Nc1ccc(C(F)(F)F)cc1
(28) C[C@H](NC(=O)c1ccco1)C(=O)Nc1ccc(S(=O)(=O)N2CCCC2)cc1
(29) COc1cc(-c2nc3ccccn3c2/N=C/c2cccc(Cl)c2Cl)ccc1O
(30) CN1C2CCC1CC(NC(=O)CSc1nnc(N)s1)C2 (stereo not drawn)

assay / entry	25	26	27	28	29	30
Sa growth 42C	103	116	117	99	94	82
Sa growth 42C second temp	90	83	87	99	84	81
HCMV NEC inh	-5	-18	-1	-2	-6	-22
GIV-Gai inh	103	99	101	x	x	101

(31) O=C(O)c1ccc2c(c1)ncn2C1CCCCC1
(32) NC(N)=NC(N)=Nc1ccccc1C(F)(F)F
(33) O=C(OCc1ccc(Br)cc1)c1ccco1
(34) O=C(Cc1ccccc1)NN1C(=O)C2C3C=CC(C3)C2C1=O (stereo not drawn)
(35) Oc1ccc(N=Cc2ccc[nH]2)cc1N=Cc1ccc[nH]1
(36) O=C(O)CCC(=O)N1CC(=O)Nc2ccccc21

assay / entry	31	32	33	34	35	36
Sa growth 42C	89	104	114	77	88	110
Sa growth 42C second temp	93	94	98	89	68	87
HCMV NEC inh	x	-12	-3	-6	-36	7
GIV-Gai inh	101	105	101	104	x	x

(37) COc1ccccc1N=Cc1ccsc1S
(38) CC(C)CC(=O)Nc1nnc(S(=O)(=O)N2CCCCCC2)s1
(39) O=C(CSc1cccc[n+]1[O-])NC1CCCCCC1
(40) CCOC(=O)COc1cc2c(C(=O)OCC)c(-c3ccccc3)oc2cc1Br
(41) Cc1cc2c(cc1S(=O)(=O)N1CCCC1C(=O)N1CCN(c3ccccc3)CC1)OCC(=O)N2 (stereo not drawn)
(42) NS(=O)(=O)c1cc(C(=O)O)c(NCc2ccco2)cc1Cl

assay / entry	37	38	39	40	41	42
Sa growth 42C	59	101	107	x	x	90&90
Sa growth 42C second temp	50	99	96	x	x	88&92
HCMV NEC inh	x	10	10	-15	-15	-6&-14&2&-15&-15
GIV-Gai inh	107	101	x	100	112	104

(43) O=C(O)c1ccc(N2CCOCC2)c(NS(=O)(=O)c2cc(F)ccc2F)c1
(44) COc1ccc(-c2nc3c4ccccc4n(CC(=O)Nc4ccc(C(C)C)cc4)c(=O)n3n2)cc1
(45) COC(=O)c1[nH]c(COc2ncnc3ccccc23)c(C(=O)OC)c1C
(46) COc1ccc(NC(=O)N2CCCn3nc(C)cc32)cc1OC
(47) O=C(O)[C@H](Cc1ccccc1)N1C(=O)c2ccncc2C1=O
(48) CSc1sc(C(=O)O)c(-c2cccs2)c1C#N

assay / entry	43	44	45	46	47	48
Sa growth 42C	x	129	98	78	103	100
Sa growth 42C second temp	x	89	95	84	85	90
HCMV NEC inh	-13	x	-15	-8	x	-30
GIV-Gai inh	104	96	x	100&108	108	100

(49) COc1ccc(CN2C(=O)NC(=O)/C(=C\c3cc(OC)ccc3OC)C2=O)cc1
(50) Cc1ccc(NC2=NC(c3ccccc3)n3c(nc(C)cc3=O)N2)cc1 (stereo not drawn)
(51) CCOc1ccc(NC(=O)N(CCN2CCOCC2)Cc2ccc3c(c2)CCCN3CC)cc1
(52) CSc1ncc(C(=O)N2CCCc3ccccc32)c(C)n1
(53) CCOC(=O)c1cc(-c2cccnc2)nc2c1c(C)nn2C
(54) CCOc1ccc(C(=O)N(CCOC)CCC(=O)N2CCNCC2)cc1

assay / entry	49	50	51	52	53	54
Sa growth 42C	x	83	92	87	110	x
Sa growth 42C second temp	x	74	89	86	101	x
HCMV NEC inh	83*	x	x	x	-44	21
GIV-Gai inh	112	103	103	110	x	103

(55) CCCCSc1nnc2c(n1)OC(c1cccs1)Nc1ccccc1-2 (stereo not drawn)
(56) Nn1c(SCC(=O)O)nnc1-c1ccncc1
(57) CCOC(=O)C1=C(C)N=c2s/c(=C\c3cc(Br)ccc3OC(C)=O)c(=O)n2C1c1cccs1 (stereo not drawn)
(58) CCn1c(SC)nc2ccccc2c1=O
(59) CCC(C(=O)Nc1cccc(Cl)c1)n1nc(-c2ccc(OC)cc2)ccc1=O (stereo not drawn)
(60) N#CCCN(C(=O)Nc1ccccc1)c1ccccc1

assay / entry	55	56	57	58	59	60
Sa growth 42C	x	98	x	105	84	101
Sa growth 42C second temp	x	82	x	94	67	104
HCMV NEC inh	-24	-26	1	-5	-2	-2
GIV-Gai inh	108	102	107	105	100	106

(61) Cc1ccc2c(c1)N(C(=O)CCC(=O)N1CCN(c3ccccn3)CC1)CCO2
(62) COc1cc(NC(=O)c2noc3c2CCc2ccccc2-3)cc(OC)c1OC
(63) COc1ccc(C2=NN3COc4ccc(Br)cc4C3C2)cc1 (stereo not drawn)
(64) O=C(NC1CCCC1)c1ccc(Nc2ccnc(-c3cccc(F)c3)n2)cc1
(65) c1cc2c(cc1-c1nc3sc(-c4ccc5c(c4)OCO5)nc3s1)OCO2
(66) CCC(=O)N(c1nnc(SCc2ncc(-c3ccccc3)o2)s1)C1CC1

assay / entry	61	62	63	64	65	66
Sa growth 42C	x	103	x	x	93	79
Sa growth 42C second temp	x	114	x	x	84	84
HCMV NEC inh	-4	13	-20	16	-9	-10
GIV-Gai inh	97	103	99	100	102	x

Structural class, the entries above with bromine (five)
(27) O=C(CCS(=O)(=O)c1cc(Br)cc2c1N(C(=O)C1CC1)CC2)Nc1ccc(C(F)(F)F)cc1
(33) O=C(OCc1ccc(Br)cc1)c1ccco1
(40) CCOC(=O)COc1cc2c(C(=O)OCC)c(-c3ccccc3)oc2cc1Br
(57) CCOC(=O)C1=C(C)N=c2s/c(=C\c3cc(Br)ccc3OC(C)=O)c(=O)n2C1c1cccs1 (stereo not drawn)
(63) COc1ccc(C2=NN3COc4ccc(Br)cc4C3C2)cc1 (stereo not drawn)

assay / entry	27	33	40	57	63
Sa growth 42C	117	114	x	x	x
Sa growth 42C second temp	87	98	x	x	x
HCMV NEC inh	-1	-3	-15	1	-20
GIV-Gai inh	101	101	100	107	99

Remaining list, next part.
(67) Cc1cc(C)c2c(n1)SCC(=O)N2CC(=O)NCC1CCCO1 (stereo not drawn)
(68) O=C(NCc1cccs1)c1c[nH]c2c(F)cccc2c1=O
(69) CCC(Sc1nc(N)cc(=O)[nH]1)C(=O)Nc1cccc2ccccc12 (stereo not drawn)
(70) CC(C)(C)C(=O)N(Cc1nc(-c2ccccc2)no1)C1CCCCC1
(71) O=C1CC(Cc2ccccc2)C(=O)N1c1nccs1 (stereo not drawn)
(72) Cc1oc(-c2ccc(OC(C)C)cc2)nc1CSc1nc(-c2ccncc2)cc(=O)[nH]1

assay / entry	67	68	69	70	71	72
Sa growth 42C	101	121	96	123	101	x
Sa growth 42C second temp	87	101	80	87	92	x
HCMV NEC inh	-7	0	-4	x	x	-33
GIV-Gai inh	96	105	106	106	96	106

(73) Cn1c(SCc2ccccc2Cl)nnc1-c1oc2nc(-c3ccccc3)cc(-c3ccco3)c2c1N
(74) COc1ccc(-c2[nH]c3c(c2-c2c(-n4cccc4)n(C)c(=O)n(C)c2=O)c(=O)n(C)c(=O)n3C)cc1
(75) COc1cc2ncc(C(=O)c3ccc(C)cc3)c(N3CCCCC3)c2cc1OC
(76) O=C(c1cccs1)N1CCCn2c1nc1ccccc12
(77) O=C1NC(=S)N(c2ccc(Cl)cc2)C(=O)/C1=C/c1ccc(N2CCCCC2)o1
(78) NC(=O)CCS(=O)(=O)CCN1CCN(Cc2c(F)cccc2Cl)CC1

assay / entry	73	74	75	76	77	78
Sa growth 42C	96	107	90	103	x	62
Sa growth 42C second temp	42	88	72	79	x	82
HCMV NEC inh	-12	-29	-7	-14	-8	-36
GIV-Gai inh	114	104	107	102	252	x

(79) CC(=O)Nc1ccc(C(=O)OCC(=O)NCc2ccccc2Cl)cc1
(80) O=C(OCCN1C(=O)c2cccc3c(N4CCOCC4)ccc(c23)C1=O)c1ccccc1Br
(81) Cc1ccc2c(c1)-c1c(cnn1CC(=O)N1CCN(c3ccccc3F)CC1)CO2
(82) Cc1cc(Cl)ccc1OCC(=O)N(Cc1ccco1)Cc1ccccc1F
(83) Cc1cccc(N2CCN(c3ncnc4c3cnn4-c3ccc(Cl)cc3)CC2C)c1 (stereo not drawn)
(84) Cc1cc(C)c(S(=O)(=O)NCC(c2ccco2)S(=O)(=O)c2ccccc2)c(C)c1 (stereo not drawn)

assay / entry	79	80	81	82	83	84
Sa growth 42C	119	x	89	103	97	107
Sa growth 42C second temp	97	x	84	94	91	101
HCMV NEC inh	5	-14	-8	-12	x	x
GIV-Gai inh	x	116	97	101	103	105

(85) CCCN(Cc1nc2cc(Cl)ccc2c(=O)[nH]1)C(=S)NC
(86) Cc1c(C(=O)Nc2ccc3ccccc3c2)oc2ccccc12
(87) O=C1OC(c2ccc(Br)cc2)=N/C1=C\N1CCN(c2ccc([N+](=O)[O-])cc2)CC1
(88) CCCCN(C)CCNC(=O)c1ccc2c(c1)NC(=O)CN2

assay / entry	85	86	87	88
Sa growth 42C	72	88	x	113
Sa growth 42C second temp	95	84	x	85
HCMV NEC inh	-7	-3	22	x
GIV-Gai inh	x	x	110	107
